# HNF4A DNA FP: change in binding of human HNF4 alpha to DNA | activity change, % at 10 µM | HNF4a-FITC DNA binding, fluorescence polarization, 1 h | 360,000 compounds, 0.3% hits; in the data active means activity change above about 30%, passing the limit was not always enough;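 further: controls were the assay level and a saturating level of protein; the project sought stronger binding though the title names inhibitors; some compounds called inactive have numbers as strong as hits; positive values seem to mean higher polarization but the record does not say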
# Target sequence (P41235 whole entry, looked up): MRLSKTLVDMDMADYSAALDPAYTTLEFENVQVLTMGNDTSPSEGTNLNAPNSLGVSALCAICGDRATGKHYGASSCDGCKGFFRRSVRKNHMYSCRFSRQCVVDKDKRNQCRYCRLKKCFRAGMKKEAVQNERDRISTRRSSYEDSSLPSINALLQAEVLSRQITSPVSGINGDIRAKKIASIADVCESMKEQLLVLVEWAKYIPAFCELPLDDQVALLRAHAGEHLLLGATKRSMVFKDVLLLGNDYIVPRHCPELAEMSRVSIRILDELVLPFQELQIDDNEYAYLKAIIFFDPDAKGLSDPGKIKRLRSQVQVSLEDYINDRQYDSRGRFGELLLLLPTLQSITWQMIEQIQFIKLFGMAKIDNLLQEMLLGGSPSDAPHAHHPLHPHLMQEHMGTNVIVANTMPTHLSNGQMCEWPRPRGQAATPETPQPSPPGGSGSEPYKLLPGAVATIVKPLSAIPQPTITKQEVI
# An asterisk follows results filed as active. These rows are one share of the data; count on the stated rates, not on these rows.
# A first look:
HNF4A DNA FP	structure
-2.0	CCOC(=O)[C@]12CCCC=C1N(Cc1cccc3ccccc13)C(=O)[C@H](CC(=O)NCc1cccc(C(F)(F)F)c1)C2
-1.4	CCc1ccccc1Oc1nc(NC(C)C)nc2ccsc12
1.8	CC(=O)Nc1ccc(NC(=O)c2ccc(S(=O)(=O)N3CCCCCC3)cc2)cc1
-6.4	COC(=O)c1sccc1-n1cc2c(c1-c1ccccc1)c(=O)n(C)c(=O)n2C
3.2	CCc1nc2ccc(C(=O)NCC3CCCCC3)cn2c1N(C)Cc1nccs1
4.8	COc1ccc(NC(=O)Cc2csc(NC(=O)Nc3ccccc3OC)n2)cc1
-0.3	COc1ccc(Sc2ccc(NC(=O)c3cccc(Cl)c3)cc2C#N)cc1
-1.0	CN(c1ccc(Cl)cc1)c1cc2c(c3c1ccn3C)C1CCC2O1 (stereo unspecified)
-0.7	COc1ccc(C2=Nc3ccccc3N(C(=O)c3cccnc3)C2C(=O)NC(C)(C)C)cc1 (stereo unspecified)
1.3	O=C(NCc1ccccc1)C(c1ccc(F)cc1)N1CCN(c2ccccc2F)CC1 (stereo unspecified)
0.0	O=C(NCc1ccc(F)cc1)c1cc(C2CCCCN2C(=O)C2CCCCC2)on1 (stereo unspecified)
-3.2	COC(=O)[C@]12CCCCC=C1N(CCc1ccc(OC)c(OC)c1)C(=O)[C@H](CC(=O)NCCC(C)C)C2
-4.1	Cc1ccc(-c2ccc(CN3C(C(C)C)C(=O)N(Cc4cn(CCC5OCCCO5)nn4)CCS3(=O)=O)cc2)cc1 (stereo unspecified)
0.4	O=C(NCc1ccccc1)C(c1ccc(F)cc1)N1CCN(C(=O)C2CCCO2)CC1 (stereo unspecified)
2.1	Cc1nc2c(OCC(=O)C(C)(C)C)cccn2c1N(C)Cc1cccs1
6.6	COC(=O)C1=CN(c2cccc(OCc3ccccc3)c2)C(N)=C(C#N)C1c1cccc(OC)c1OC (stereo unspecified)
-3.4	CCOC1=C2CN(S(=O)(=O)c3ccc(C)cc3)CC[C@@H]2N(S(=O)(=O)c2ccc(C)cc2)[C@H](c2ccccc2)C1
3.4	O=C(NCc1cccc(C(F)(F)F)c1)C1C(=O)Nc2ccccc2C(=O)N1Cc1ccccc1 (stereo unspecified)
-0.3	Cc1ccc2nc(-c3cccc(Cl)c3)c(Cc3cccc(F)c3)n2c1
-0.8	Cc1cnc2ccc(F)cc2c1
2.0	CCOc1cc(OCC)cc(C(=O)NCCN2CCC(n3c(=O)[nH]c4ccccc43)CC2)c1

# All compounds of this part, repeating the preview:
HNF4A DNA FP	structure
-2.0	CCOC(=O)[C@]12CCCC=C1N(Cc1cccc3ccccc13)C(=O)[C@H](CC(=O)NCc1cccc(C(F)(F)F)c1)C2
-1.4	CCc1ccccc1Oc1nc(NC(C)C)nc2ccsc12
1.8	CC(=O)Nc1ccc(NC(=O)c2ccc(S(=O)(=O)N3CCCCCC3)cc2)cc1
-6.4	COC(=O)c1sccc1-n1cc2c(c1-c1ccccc1)c(=O)n(C)c(=O)n2C
3.2	CCc1nc2ccc(C(=O)NCC3CCCCC3)cn2c1N(C)Cc1nccs1
4.8	COc1ccc(NC(=O)Cc2csc(NC(=O)Nc3ccccc3OC)n2)cc1
-0.3	COc1ccc(Sc2ccc(NC(=O)c3cccc(Cl)c3)cc2C#N)cc1
-1.0	CN(c1ccc(Cl)cc1)c1cc2c(c3c1ccn3C)C1CCC2O1 (stereo unspecified)
-0.7	COc1ccc(C2=Nc3ccccc3N(C(=O)c3cccnc3)C2C(=O)NC(C)(C)C)cc1 (stereo unspecified)
1.3	O=C(NCc1ccccc1)C(c1ccc(F)cc1)N1CCN(c2ccccc2F)CC1 (stereo unspecified)
0.0	O=C(NCc1ccc(F)cc1)c1cc(C2CCCCN2C(=O)C2CCCCC2)on1 (stereo unspecified)
-3.2	COC(=O)[C@]12CCCCC=C1N(CCc1ccc(OC)c(OC)c1)C(=O)[C@H](CC(=O)NCCC(C)C)C2
-4.1	Cc1ccc(-c2ccc(CN3C(C(C)C)C(=O)N(Cc4cn(CCC5OCCCO5)nn4)CCS3(=O)=O)cc2)cc1 (stereo unspecified)
0.4	O=C(NCc1ccccc1)C(c1ccc(F)cc1)N1CCN(C(=O)C2CCCO2)CC1 (stereo unspecified)
2.1	Cc1nc2c(OCC(=O)C(C)(C)C)cccn2c1N(C)Cc1cccs1
6.6	COC(=O)C1=CN(c2cccc(OCc3ccccc3)c2)C(N)=C(C#N)C1c1cccc(OC)c1OC (stereo unspecified)
-3.4	CCOC1=C2CN(S(=O)(=O)c3ccc(C)cc3)CC[C@@H]2N(S(=O)(=O)c2ccc(C)cc2)[C@H](c2ccccc2)C1
3.4	O=C(NCc1cccc(C(F)(F)F)c1)C1C(=O)Nc2ccccc2C(=O)N1Cc1ccccc1 (stereo unspecified)
-0.3	Cc1ccc2nc(-c3cccc(Cl)c3)c(Cc3cccc(F)c3)n2c1
-0.8	Cc1cnc2ccc(F)cc2c1
2.0	CCOc1cc(OCC)cc(C(=O)NCCN2CCC(n3c(=O)[nH]c4ccccc43)CC2)c1
0.1	COc1ccc(C(=O)C(C)OC(=O)C2CC3CCCC(C2)C3=O)cc1 (stereo unspecified)
2.1	O=C(NCCN1CCC(n2c(=O)[nH]c3ccccc32)CC1)c1cccnc1Cl
26.4	O=C(NCc1ccccc1)C(c1cccc2ccccc12)n1c(=O)c(-c2ccco2)nc2ccccc21 (stereo unspecified)
0.7	COc1ccc2c(CN3CCOCC3)cc(=O)oc2c1
-2.6	CCOC1=C2CN(S(=O)(=O)c3ccc(C)cc3)[C@H](c3ccc(CC)cc3)C[C@@H]2N(S(=O)(=O)c2ccc(C)cc2)[C@H](c2ccccc2)C1
-0.9	COc1ccc(C2=Nc3ccccc3N(C(=O)c3ccc4ncccc4c3)C2C(=O)NC(C)(C)C)cc1 (stereo unspecified)
-4.7	O=C(Nc1nnc([C@@H]2C[C@H](O)[C@@H](CO)O2)s1)Nc1cccc(Cl)c1Cl
0.6	CC1=C(C(=O)N2CCOCC2)CC(CC(=O)NCc2cccs2)C(=O)N1Cc1ccc(F)cc1 (stereo unspecified)
1.8	Cc1ccccc1Cn1c(C)c(C(=O)NCc2cccc(C(F)(F)F)c2)sc1=O
0.5	CN(C)c1cccc(NC(=O)c2ccc(-c3ccc(F)c(F)c3)c3ccoc23)c1
1.6	CC(=O)N1CCc2cc(NC(=O)C3(C)CCN3Cc3ccc(C(C)C)cc3)ccc21 (stereo unspecified)
-1.0	CC(C)c1cc(Cn2c3ccccc3c(=O)n2C(C)Cn2cc(-c3ccccc3)nn2)on1 (stereo unspecified)
3.1	COc1ccc(OC)c(S(=O)(=O)NC(=O)C2(C)CCN2C(=O)Cc2ccc(Cl)cc2Cl)c1 (stereo unspecified)
0.0	Cc1noc(C)c1S(=O)(=O)N(C)C[C@@H]1OCc2cn(nn2)CCCC(=O)N([C@@H](C)CO)C[C@H]1C
-1.6	CC1(C(=O)Nc2ccc3c(c2)OCCO3)CSCC(=O)N1CCCn1ccnc1 (stereo unspecified)
0.2	Nc1c(-c2ccc(C(F)(F)F)cc2)nc2ncccn12
1.5	CC(c1nc2ccccc2[nH]1)N(C(=O)Cc1csc2ccccc12)c1cccnc1 (stereo unspecified)
-1.4	CSCCC(C(=O)NCc1ccccc1)n1c(-c2ccc3c(c2)CCO3)nc2ccccc21 (stereo unspecified)
-0.9	CCOc1ccc(NC(=O)CN(C)C(=O)Cc2ccc3c(c2)OCCO3)cc1OCC
3.6	Cc1ccc(CN2CCC(C)(Oc3ccc(Cl)cc3)C2)cc1 (stereo unspecified)
-1.6	COc1ccc(-c2ccc(C(=O)NCc3ccco3)c3occc23)c(C)c1
4.1	CC(=O)Nc1cccc(NC(=O)c2ccccc2Cl)c1
1.9	COc1ccccc1-c1cnc(C(O)c2ccc(C)c(F)c2)[nH]1 (stereo unspecified)
-1.6	c1ccc(CCNc2ccc3ncc(-c4cccc5ccccc45)n3n2)nc1
0.0	COc1ccc(C(O)c2ncc(-c3ccc4ccccc4c3)[nH]2)cc1F (stereo unspecified)
4.8	CCOC(=O)[C@]12CCCC=C1N(Cc1ccc3c(c1)OCO3)C(=O)[C@H](CC(=O)NCC1CCCCC1)C2
-0.4	Cc1c(C(=O)NCc2ccccc2C(F)(F)F)sc(=O)n1Cc1ccccc1C#N
-2.1	N#Cc1cccnc1N1CCN(C(C(=O)NC2CCCC2)c2ccco2)CC1 (stereo unspecified)
-1.1	O=C(c1ccc(Cl)c(Cl)c1)N1CCC(=O)N([C@H](COCc2ccccc2)Cc2ccccc2)CC1

# Next compounds.
HNF4A DNA FP	structure
-2.4	OCCc1ccc(NCCc2cccs2)cc1
-0.8	CCCCCCn1cc(CN2CC(N3CCN(Cc4ccccc4F)CC3)CS2(=O)=O)nn1 (stereo unspecified)
-0.8	CN(C)C(=O)c1cccc(-c2cnc3cccnn23)c1
3.7	Cc1cccc(C)c1Cn1c(C)c(C(=O)NCCC#N)sc1=O
0.3	CC(C)c1ccc(CC(=O)N2CCC2(C)C(=O)NS(=O)(=O)c2ccc(C(C)(C)C)cc2)cc1 (stereo unspecified)
0.5	O=C(c1[nH]c(C(F)(F)F)nc1-c1ccccc1)N1CCCCC1
20.7	CC(C)(C)S(=O)N1Cc2cc(C(=O)N[C@@H]3CCN(Cc4ccccc4)C3)nc(-c3cccc(-c4cc5ccccc5o4)c3)c2[C@@H]1CCO (stereo partly specified)
1.1	CC(=O)NC(c1ccc(F)c(F)c1)c1nc(-c2cnn(C)c2)cs1 (stereo unspecified)
-4.2	Cc1ccc(C(=O)NCC(=O)N2CCN(c3ccccc3O)CC2)s1
0.7	Cc1cnc(C)c(Nc2nc(C(N)c3ccccc3)cs2)n1 (stereo unspecified)

# The closing 3 compounds of the part above come first, to join the parts:
HNF4A DNA FP	structure
1.1	CC(=O)NC(c1ccc(F)c(F)c1)c1nc(-c2cnn(C)c2)cs1 (stereo unspecified)
-4.2	Cc1ccc(C(=O)NCC(=O)N2CCN(c3ccccc3O)CC2)s1
0.7	Cc1cnc(C)c(Nc2nc(C(N)c3ccccc3)cs2)n1 (stereo unspecified)
-1.7	FC(F)(F)c1cc(Cl)c2nc(-c3ccccc3)c(Cc3ccccc3)n2c1
6.5	Cc1ccccc1NC(=O)COC(=O)COc1ccc2ccc(=O)oc2c1
0.6	Cc1ccc(Cl)cc1-c1cc(C(=O)NCc2cccc(Cl)c2)[nH]n1
1.1	COc1ccc(NC(=O)c2sc(=O)n(Cc3cccc(C(F)(F)F)c3)c2C)cc1OC
2.9	CCCNC(=O)N(C)C[C@@H]1Oc2cc(C#CC(C)(C)O)ccc2S(=O)(=O)N([C@H](C)CO)C[C@H]1C
0.1	Cc1cc(C)c2c(CN3CCN(c4ccccc4)CC3)cc(=O)oc2c1
-0.6	CCNC(=O)C1CCCN(C(=O)c2ccc3c(c2)CCO3)CC1 (stereo unspecified)
0.1	C=CCC[C@@H](CCCCC)OC(=O)/C=C/[C@H](O)[C@@H](O)C[C@H](O)CC=C
0.2	Cc1ccsc1C(=O)N1CCC1(C)C(=O)Nc1ccc2c(c1)OCCO2 (stereo unspecified)
1.6	Cc1ccccc1OCCC(=O)Nc1ccc(S(=O)(=O)N2CCCC2)cc1
2.5	O=C(Nc1ccc(F)c(Cl)c1)c1cc(C2CCCCN2C(=O)c2ccc3c(c2)CCO3)on1 (stereo unspecified)
-0.1	O=C(C[C@@H]1C=C[C@H](NC(=O)Cc2ccccn2)[C@@H](CO)O1)NCCc1ccccc1
-3.8	O=C(NCC1CC1)c1csc(COCCO)n1
-0.7	CCn1nccc1NC(=O)c1csc([C@H]2C[C@H](O)[C@@H](CO)O2)n1
5.1	COc1ccc(-c2cc(CNc3nc4cc(-c5ccccc5C)sc4c(=O)n3C)on2)cc1
2.6	OCc1ccccc1-c1cnc2cccnn12
1.2	CC(O)(c1cccc(F)c1)c1nc(-c2cccc(C(F)(F)F)c2)cs1 (stereo unspecified)
1.3	Cc1ccccc1NC(=O)Nc1nc(CN(C)C)cs1
-2.1	C[C@@H]1COc2cc(N3CCSCC3)ccc2S(=O)(=O)N1
4.5	Cc1ccc(S(=O)(=O)N2C[C@H]3C(=O)C[C@@H](c4ccccc4C)N(S(=O)(=O)c4ccc(C)cc4)[C@H]3C[C@H]2c2ccccc2)cc1
-2.5	CCOC(=O)[C@]12CCC=C1N(Cc1cccc3ccccc13)C(=O)[C@H](CC(=O)NCC13CC4CC(CC(C4)C1)C3)C2
3.6	COCc1cccc(-c2csc(C(C)(O)c3ccc(OC)cc3)n2)c1 (stereo unspecified)
1.3	CCc1nc2c(OCC(=O)c3ccc(F)cc3)cccn2c1N(C)C(=O)c1ccc(OC)cc1
7.9	Cc1cccc(C)c1NC(=O)C(CCc1ccccc1)n1c(=O)c(-c2cc3ccccc3[nH]2)nc2ccccc21 (stereo unspecified)
2.9	COc1ccccc1CCn1cnc(C)c1CC(C)C
2.3	CN(Cc1cn(Cc2cccc(Cl)c2)nn1)C1CN(Cc2cn(Cc3cccc(Cl)c3)nn2)S(=O)(=O)C1 (stereo unspecified)
2.0	O=C(Nc1nc([C@@H]2O[C@H](CO)[C@@H](O)[C@H](O)[C@H]2O)cs1)NC(c1ccccc1)c1ccccc1
0.9	CCCC(=O)N1CCC1(C)C(=O)NS(=O)(=O)c1cccc(Cl)c1 (stereo unspecified)
-0.8	CCOC(=O)C(=O)N(C)c1c(CC)nc2c(OCCC3CCCCC3)cccn12
1.7	O=C(Nc1nnc([C@H]2C[C@H](O)[C@@H](CO)O2)s1)Nc1ccccc1Oc1ccccc1
-0.9	O=[N+]([O-])c1ccc(/C=N\N2CCN(Cc3ccccc3Cl)CC2)cc1
6.3	COc1ccc(S(=O)(=O)NC(=O)C2(C)CCN2C(=O)Cc2ccccc2)cc1OC (stereo unspecified)
8.9	Clc1cccc(Cc2c(-c3cccc(Cl)c3)nc3ccc(Cl)cn23)c1
